# Cruzain Triton = cruzain (T. cruzi) inhibition with detergent; actives 0.43% (n = 200,000); P25779; purified cruzain, Z-FR-AMC fluorescence, 0.01% Triton; Potency, µM, for inactives: max response, negative = inhibition, actives largely listed as inhibitors; active = well fitted curve in the direction sought with a large enough effect; inconclusive = small, poorly fitted or top-dose-only effect, or another doubt; inactive = no such curve, though single readings can be large; an effect the other way counts as inactive or inconclusive;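 note: plate controls were neutral wells for no effect and buffer without enzyme for full effect; nearly all actives have a fitted effect of over 40% in size; top concentration of the series not given in the record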
# Target sequence (P25779 123-467 limits assumed): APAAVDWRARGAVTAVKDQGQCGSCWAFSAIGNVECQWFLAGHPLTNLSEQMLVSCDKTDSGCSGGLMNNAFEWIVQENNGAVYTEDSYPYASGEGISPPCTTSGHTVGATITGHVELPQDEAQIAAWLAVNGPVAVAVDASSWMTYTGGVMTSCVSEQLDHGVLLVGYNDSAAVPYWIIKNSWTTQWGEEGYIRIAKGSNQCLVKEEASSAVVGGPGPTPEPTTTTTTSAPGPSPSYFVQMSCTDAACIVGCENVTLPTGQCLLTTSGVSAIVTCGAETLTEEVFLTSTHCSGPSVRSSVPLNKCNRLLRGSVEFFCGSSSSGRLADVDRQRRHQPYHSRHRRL
#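 In this qHTS format, compounds are incubated with 1.5 nM cruzain for 15 min at room temperature before 2 uM Z-FR-AMC is added. Release of AMC is followed at 360/450 nm, and progress is taken as the 60 s fluorescence difference.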
# NS1 function inh = inhibitors of influenza NS1 protein function | S. cerevisiae slowed by influenza A NS1, growth recovery by OD600 | Potency, µM (titrated, usually from 46.1 µM), for inactives: top-dose activity, positive = more growth | actives 0.4% (n = 270,000) | AID 2326; note: actives are rising curves; nearly all actives have a fitted effect of over 50% in size
#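 OD600 was taken as the measure of yeast growth restored by compound in an NS1-expressing S. cerevisiae strain. Cells had been washed out of glucose medium and diluted 1:100 into galactose -URA medium, pH 6.0.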
# 2A StopGo = lowers the luciferase signal of an FMDV 2A StopGo reporter. human cells with a luciferase reporter of 2A StopGo recoding; control for the full effect not named in the record. Potency, µM (doses to about 57.9 µM), for inactives: at the highest dose signal change, negative = less light. actives 1.2% (n = 410,000); active = well fitted falling curve with a large enough effect; inconclusive = small, poorly fitted or top-dose-only effect; inactive = no such curve, though single readings can be large or run the other way; tested in HEK293T cells; note: % is set by controls: 0 for no effect and ±100 for the full control effect; nearly all actives have a fitted effect of over 45% in size; luciferase light after 4 h
# SARS PLP yeast = SARS-CoV PLP inhibition in yeast; S. cerevisiae expressing SARS-CoV PLpro, growth rescue; control for the full effect not named in the record; actives 0.19% (n = 330,000); AID 485353; Potency, µM (titrated, usually from 32.9 µM), for inactives: top-dose activity, positive = growth rescue; note: 0% is about no effect; nearly all actives have a fitted effect of over 55% in size; growth read by luminescence after 48 h
# RE007 growth inh = less growth of the S. pombe RE007 Vpr strain. S. pombe RE007 Vpr strain, BacTiter-Glo ATP luminescence, 24 h; control for the full effect not named in the record. Potency, µM (doses to about 92.2 µM), for inactives: top-dose activity change, negative = less growth. actives 0.21% (n = 360,000); active = well fitted falling curve with a large enough effect; inconclusive = small, poorly fitted or top-dose-only effect; inactive = no such curve, though single readings can be large or run the other way;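 note: % is set by controls: 0 for no effect and ±100 for the full control effect; nearly all actives have a fitted effect of over 50% in size; the assay follows cell death caused by Vpr and the record does not say whether a fall means rescue or toxicity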
#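 Fission yeast strain RE007, carrying one chromosomally integrated HIV-1 vpr copy, was seeded at OD 0.01 in PMG+AL medium with 23 nL pinned compound. After 24 h at 30 °C and 99% humidity, viability was read by BacTiter-Glo luminescence.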
# LASV entry inh = blocks Lassa virus binding to or entry into cells; Potency, µM (titrated, usually from 37.9 µM), inactives show at the top dose activity change, negative = inhibition, usual class: inhibitors; actives 1.2% (n = 300,000); Lassa virus pseudotype entry inhibition, cell reporter; control for the full effect not named in the record; AID 540256; active means well fitted inhibition curve with a large enough effect; inconclusive means small, poorly fitted or top-dose-only effect, or effect the other way; inactive means flat fitted curve, though single readings scatter; tested in HEK293 cells; note: % is set by controls: 0 for no effect and ±100 for the full control effect; nearly all actives have a fitted effect of over 50% in size; luciferase read-out
# Cruzain inh noDet = cruzain (T. cruzi) inhibition without detergent; actives 2.3% (n = 200,000); Potency, µM, for inactives: max response, negative = inhibition, hits mostly inhibitors; purified cruzain, Z-FR-AMC fluorescence, no detergent; AID 1476; P25779; active = well fitted curve in the direction sought with a large enough effect; inconclusive = small, poorly fitted or top-dose-only effect, or another doubt; inactive = no such curve, though single readings can be large; an effect the other way counts as inactive or inconclusive;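 note: plate controls were enzyme without inhibitor for no effect and buffer without enzyme for full effect; nearly all actives have a fitted effect of over 40% in size; top concentration of the series not given in the record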
#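 Purified cruzain at 1.5 nM, pre-incubated 15 min with compound at room temperature in 100 mM sodium acetate pH 5.5, 5 mM DTT, 0.00005% Triton X-100. Reaction started with 2 uM Z-FR-AMC; AMC fluorescence increase over 60 s gives rate.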
# Marburg entry inh = blocks Marburg virus binding to or entry into cells | Marburg virus pseudotyped entry inhibition, cell reporter; control for the full effect not named in the record; about a third of the inactives were read at about 46 µM | Potency, µM (series often up to 37.8 µM), for the others: top-dose activity change, negative = inhibition, actives largely listed as inhibitors | actives 1.8% (n = 300,000) | AID 540276; active = well fitted inhibition curve with a large enough effect; inconclusive = small, poorly fitted or top-dose-only effect, or effect the other way; inactive = flat fitted curve, though single readings scatter; tested in HEK293 cells; about a fifth of its hits are not listed in these tables; note: % is set by controls: 0 for no effect and ±100 for the full control effect; luciferase read-out
# Starred values were filed as active, the others as inactive; ? = inconclusive; . = not tested or not shown; & = joins results of further samples; [ ] = remark or other dose. Unless noted, calls come from the whole dose curve; as a rule, active means well fitted rising curve with a large enough effect; inconclusive means small, poorly fitted or top-dose-only effect; inactive means no such curve, though single readings can be large or run the other way. Potency is the fitted concentration of half-maximal effect.
# Below each SMILES – SARS PLP yeast | RE007 growth inh | Cruzain Triton | LASV entry inh | Cruzain inh noDet | 2A StopGo | Marburg entry inh | NS1 function inh
COc1ccc(-c2noc(CCCC(=O)NC3CCCC3)n2)cc1OC
→ ? | 5.4% | . | . | . | -20.4% | . | 0.8%
CN(C)c1ccc(C(=O)N2CCNC(=O)C2CC(=O)Nc2ccc(F)cc2)cc1 (stereo unspecified)
→ ? | 10.4% | . | . | . | 1.7% | . | -1.5%
CCN(CC)S(=O)(=O)c1cccc2c(N(C)C)cccc12
→ -12.1% | -0.4% | -5.4% | -13.1% | -17.9% | -26.9% | -0.1% | -16.9%
O=C(N[C@@H](Cc1ccc(O)cc1)C(=O)O)C(c1ccccc1)c1ccccc1
→ -1.1% | 1.8% | . | . | . | -4.3% | . | 1.5%
CCCc1ccc2oc(C(=O)N(Cc3nccn3C)C(C)C)c(C)c2c1
→ 2.7% | -23.4% | . | . | . | -5.8% | . | ?
Cc1ccccc1NS(=O)(=O)c1ccc2[nH]cc(C(=O)N3CCCCC3)c(=O)c2c1
→ -7.8% | . | 0.5% | 15.5%[46.1 µM] | -9.9% | -1.1% | . | .
O=c1cc(-c2ccccc2F)nc(-c2ccccc2F)o1
→ 10.5% | -0.2% | 4.47µM* | 2.3% | 7.94µM* | -1.6% | 0.7% | 7.9%
COc1ccc(CCN(C)C(=O)CSc2ncnc3sccc23)cc1OC
→ -0.5% | -6.0% | . | 0.0% | . | ? | -1.8%[46.1 µM] | .
CCOC(=O)Nc1cccc2c1-c1ccc([N+](=O)[O-])cc1C2=O
→ . | -1.7% | . | 6.1% | . | -20.6% | 3.5% | .
COC(=O)c1c(NC(=O)c2cc3ccccc3c(=O)o2)sc2c1CCCC2
→ . | . | -1.5% | 4.6%[46.1 µM] | 0.4% | -10.5% | -1.2%[46.1 µM] | .
Cc1nc2sc(C(c3ccc(Cl)cc3)N3CCN(CCO)CC3)c(O)n2n1 (stereo unspecified)
→ 1.0% | -6.0% | . | . | . | ? | . | 4.3%
Cc1ccc(N2C(=O)Nc3cc(Cl)c(Cl)cc3N2O)cc1Cl
→ 0.5% | -2.9% | . | 12.7% | . | -5.9% | 19.1%[46.1 µM] | .
Cc1ccc(N2CCN(C(=O)N3CCOCC3)CC2)cc1C
→ 0.2% | 11.0% | . | 7.1%[46.1 µM] | . | 5.9% | 18.9%[46.1 µM] | -8.2%
Cc1cc(C(=O)NCC2CCCO2)n(-c2ccccc2)n1 (stereo unspecified)
→ 10.4% | -1.3% | 5.6% | . | -7.2% | -14.0% | . | ?
Nc1ccc(C(=O)Nc2ccc3c(O)cc(S(=O)(=O)O)cc3c2)cc1
→ . | -27.4% | . | ? | . | -25.8% | 0.4%[46.1 µM] | .
COc1cc(C=O)ccc1OCCOc1ccccc1[N+](=O)[O-]
→ 5.2% | 26.0% | -5.7% | ? | -4.5% | 8.4% | ? | -0.9%
CCOc1ccc2nc(SCC(=O)NCc3ccccc3OC)[nH]c2c1
→ 0.6% | 0.9% | . | ? | . | 8.0% | 0.9%[46.1 µM] | 15.5%
O=C(COC(=O)c1ccc(O)cc1)NCC1COc2ccccc2O1 (stereo unspecified)
→ 11.4%[6.58 µM] | -7.0% | . | ? | . | -13.4% | 16.2% | .
C=CCn1c(SCC(=O)NCCc2ccccc2)nc2c([nH]c3ccccc32)c1=O
→ -2.9% | -2.3% | . | 6.8% | . | -6.8% | ? | -2.9%
Cc1ccc(Nc2ccc(NCc3ccccc3)nn2)cc1C
→ 10.1% | -8.9% | -5.1% | -4.4% | 3.1% | 17.0% | 11.7% | -21.2%
CC1CCc2c(C(=O)N3CCN(S(=O)(=O)c4cccs4)CC3)csc2C1 (stereo unspecified)
→ -8.2% | -7.2% | -2.6% | -11.1% | -1.8% | ? | -5.2% | -42.1%
CCCC(=O)NC(Nc1ccc(S(=O)(=O)Nc2cc(C)on2)cc1)(C(=O)OCC)C(F)(F)F (stereo unspecified)
→ 15.5% | 14.8% | 3.2% | -3.1% | 7.7% | 0.8% | 27.0%&27.0% | -0.9%
O=C(c1ccco1)N1CCN(Cc2nc(-c3cccs3)no2)CC1
→ 1.3% | -1.3% | . | . | . | 14.0% | . | -5.7%
COc1ccc(CCNC(=O)c2cccc(-n3c(C)nc4cccnc43)c2)cc1OC
→ . | . | -2.3% | 14.8%[46.1 µM] | -4.9% | -9.6% | . | .
Cc1cc(NC(=O)CN2CCOCC2)n(-c2ccccc2)n1
→ 0.9% | 1.9% | . | -1.4% | . | 6.1% | 18.0%[46.1 µM] | -0.8%
O=C(NCc1cn(-c2ccccc2)nc1-c1ccccc1)c1ccc([N+](=O)[O-])cc1
→ -34.8% | 2.6% | -3.2% | . | ? | 36.4%[activator] | 2.5% | 7.3%
C=CCn1c2ccccc2c2nn(C)c(=S)nc21
→ -2.2% | -7.6% | . | 7.5% | . | -10.5% | 2.2% | -7.1%
CC(C)(C)c1ccc(C(=O)CSc2n[nH]c(=O)[nH]c2=O)cc1
→ 11.2% | -4.6% | 0.0% | -18.3% | -9.8% | 6.6% | 0.9% | -6.1%
O=C(Nc1cccc(Br)c1)c1ccccc1-c1ccccc1
→ -62.8% | -8.5% | -4.2% | 12.4% | 3.4% | -1.5% | -2.6% | -38.7%
O=C(NC1CCCCC1)N1CCCCCCC1
→ -9.6% | 8.3% | 5.4% | 26.0% | -7.3% | 0.0% | 14.2%&0.8% | -5.7%
Cc1ccc(N(CC(=O)N2CCOCC2)S(C)(=O)=O)cc1Cl
→ -4.6% | 1.8% | . | . | . | -12.7% | . | 15.7%
CCOC(=O)Cn1c(=O)n(CC(=O)OCC)c2ccccc21
→ -0.8% | 41.9% | -1.6% | 10.7% | -5.0% | -16.4% | -21.1% | -13.4%
O=C(CN1CCOCC1)Nc1cccc([N+](=O)[O-])c1
→ . | 0.0% | . | -1.4%[46.1 µM] | . | -8.5% | 7.3%[46.1 µM] | .
S=c1[nH]nc(-c2cc(-c3ccco3)[nH]n2)n1-c1ccccc1Cl
→ -9.5% | 16.4% | -6.8% | 0.7% | -11.6% | -5.3% | 12.0% | 14.0%
CC(OC(=O)CN(C)S(=O)(=O)c1ccc(Cl)cc1)C(=O)Nc1ccc(N2CCOCC2)cc1 (stereo unspecified)
→ 7.3% | -0.3% | 0.0% | 6.2% | 13.3% | -10.1% | 17.1%&17.1% | -0.6%
c1ccc2c(c1)OCCc1c-2[nH]c2ccccc12
→ -6.3% | -25.2% | . | ? | . | 9.8% | 0.6%[46.1 µM] | -3.3%
O=C(COC(=O)c1cccc(C(F)(F)F)c1)NC(=O)NC1CCCC1
→ 0.8% | -8.7% | . | 3.2% | . | -4.9% | -13.5% | .
O=c1c2ccccc2nc2n1C(CSCc1ccc(Cl)cc1)CS2 (stereo unspecified)
→ 2.2% | 3.6% | 0.4% | -21.8% | -26.9% | ? | ? | 5.2%
Cc1ccc(S(=O)(=O)N2CCC(=O)N(CCOC(=O)Nc3ccccc3C)CC2)cc1
→ -11.3% | -19.6% | 2.6% | 15.5% | 3.3% | -13.0% | -2.7% | -11.2%
O=C(N/N=C/c1cccc(O)c1)c1cc(C2CC2)nc2ccccc12
→ -1.4% | 0.9% | . | -18.8%[46.1 µM] | . | 2.7% | ? | -9.0%
CCC(C)NC(=O)C1CCC(CNS(=O)(=O)c2ccc3c(c2)CC(C)N3C(=O)C2CC2)CC1 (stereo unspecified)
→ -2.1% | 11.1% | . | -22.2%[46.1 µM] | . | -18.6% | 10.0%[46.1 µM] | -6.7%
COc1ccc(C2C3=C(CC(C)(C)CC3=O)Oc3ncn(Cc4ccccc4)c(=N)c32)cc1 (stereo unspecified)
→ -25.5% | -11.8% | 1.7% | ? | 3.8% | ? | ? | -9.4%
C/C(=N\N(C)C)C1=C(O)c2ccccc2C1=O
→ 3.6% | 20.8% | -7.3% | 7.4% | -11.3% | 2.2% | -1.1% | -18.6%
CCn1nc(C)c(CN2CCC(Oc3ccc(C(=O)N4CCCC4)cc3)CC2)c1C
→ -9.4% | 0.7% | . | . | . | -17.2% | . | 4.1%
CCc1ccc2oc(C(=O)NCc3ccccc3)cc(=O)c2c1
→ . | . | -6.7% | 17.3%[46.1 µM] | -4.4% | 7.4% | ? | .
CC(C)(C)OC(=O)N1CCC(c2c(C(=O)NCC3CCN(C4CCCC4)C3)cnn2-c2ccccc2)CC1 (stereo unspecified)
→ 0.4% | 4.7% | . | . | . | -5.0% | . | 16.6%
CCN(CC)S(=O)(=O)c1ccc2c(c1)N(CC(=O)NCCc1ccc(OC)c(OC)c1)C(=O)CO2
→ . | . | 0.9% | -26.3%[46.1 µM] | 7.1% | -8.7% | . | .
Cc1ccc(F)c(NC(=O)C2CCCCC2C(=O)O)c1 (stereo unspecified)
→ -3.2% | 2.1% | 4.9% | -2.0% | 1.9% | . | 13.1% | -7.1%
Cc1cccc(C(=O)Oc2c(Br)cc(Br)cc2/C=N/NC(=O)c2ccncc2)c1
→ 0.9% | 19.4% | . | 3.5% | . | -8.0% | ? | 1.8%
S=c1nc[nH]c2c1cnn2Cc1ccccc1
→ 1.1% | 11.2% | . | -2.3%[46.1 µM] | . | 22.0% | ? | 2.0%
CCO[C@H]1OC(C(=O)NCc2nc3ccccc3[nH]2)=C[C@@H](C2CCCCC2)[C@@H]1CCCO
→ 0.0% | 7.5% | . | . | . | -26.9% | . | -9.7%
O=C(CCC(=O)N1CC2CCCN2c2ccccc21)NCc1cccc(Cl)c1 (stereo unspecified)
→ . | . | -0.5% | ? | 15.8% | 0.0% | . | .
CC(=O)Nc1cccc(OCCCNS(=O)(=O)c2ccc(F)cc2)c1
→ -0.7% | -15.3% | . | . | . | -4.8% | . | 0.2%
Cc1c(NC(=S)NC(=O)C(C)(C)C)cccc1[N+](=O)[O-]
→ ? | -18.7% | 2.1% | -1.6% | -3.3% | 1.7% | 14.1% | -2.0%
CCOC(=O)Nc1cc(NC(=O)OCC)c(C)nc1C
→ -3.0% | 0.7% | . | . | . | -7.4% | . | 1.5%

# From PubChem
